Bioassay records from PubChem BioAssay.
CapD inh: CapD enzyme inhibition; z-score (no concentration beside the values); 140,000 tested, 0.23% active; AID 492967; purified CapD enzyme, fluorescence intensity read-out; hits give low values; some hits fall short of the stated cut;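 active = z-score under -4 in either of two replicates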;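 note: stock transfer was 100 nL into about 40 µL; score is relative to mean and spread of the plate; one replicate is shown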
AID504770: E. coli YBA685 growth inhibition, screen for V. cholerae RctB inhibitors | E. coli YBA685 rctB-dependent plasmid, OD600 growth, 3 h; hits give low values | z-score (no concentration beside the values) | 130,000 tested, 0.27% active;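 active = z-score under -2 on both plates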;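 note: wells of about 30 µL received 100 nL stock; score is relative to mean and SD of the test wells; the first replicate is given; strong numbers were not always called active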
* = called active by the depositor; / = not tested or not shown. Not all compounds are listed; count on the stated rates, not on these rows.

SMILES | CapD inh | AID504770
CC1=NN(c2ccccc2)C(c2ccc(OCC(=O)NCCC3=CCCCC3)cc2)C1 (centres undefined) | 0.69 | -0.8
CN1CCN(CCCNC(=O)c2cc3c(=O)[nH]c4ccccc4c3n2C)CC1 | -0.36 | -0.6
CC(NC(=O)CSc1cccc[n+]1[O-])C1CC2CCC1C2 (centres undefined) | / | 1.4
CC1CN(C(=O)CNC(=O)COc2ccccc2)CC(C)O1 (centres undefined) | / | 1
COC(=O)C1CCN(S(=O)(=O)c2c(C)c(C)cc(C)c2C)CC1 | 0.98 | 0.8
Cc1nccn1S(=O)(=O)c1ccc(Cl)c([N+](=O)[O-])c1 | -0.39 | /
COc1ccccc1Oc1cc(C)nc2ncnn12 | / | -0.85
O=C(NCc1ccc(Cl)cc1)c1cc(N2CCOCC2)nc(N2CCOCC2)n1 | 0.95 | /
N#Cc1c(C(F)(F)F)cc(C2CC2)nc1SCCN1CCCCC1 | 10 | -0.05
Cn1c(SCc2cnc(-c3ccccc3)s2)nnc1C1COc2ccccc2O1 (centres undefined) | / | 0.05
O=C1c2ccccc2S(=O)(=O)N1Cc1ccc2nonc2c1 | -0.59 | 0.15
Cc1nc2ccc(S(=O)(=O)NC(CC(C)C)C(=O)N3CCN(c4ccccc4)CC3)cc2s1 (centres undefined) | -0.36 | 0.65

The list goes on; it opens with the 7 that closed the last part.
SMILES | CapD inh | AID504770
Cc1nccn1S(=O)(=O)c1ccc(Cl)c([N+](=O)[O-])c1 | -0.39 | /
COc1ccccc1Oc1cc(C)nc2ncnn12 | / | -0.85
O=C(NCc1ccc(Cl)cc1)c1cc(N2CCOCC2)nc(N2CCOCC2)n1 | 0.95 | /
N#Cc1c(C(F)(F)F)cc(C2CC2)nc1SCCN1CCCCC1 | 10 | -0.05
Cn1c(SCc2cnc(-c3ccccc3)s2)nnc1C1COc2ccccc2O1 (centres undefined) | / | 0.05
O=C1c2ccccc2S(=O)(=O)N1Cc1ccc2nonc2c1 | -0.59 | 0.15
Cc1nc2ccc(S(=O)(=O)NC(CC(C)C)C(=O)N3CCN(c4ccccc4)CC3)cc2s1 (centres undefined) | -0.36 | 0.65
O=C(COc1ccc(Cl)cc1)NCc1nnc(SCC(=O)Nc2cccc(F)c2)o1 | -1.1 | -0.3
COc1ccc(CCN=Cc2ccc3c(c2)OCO3)cc1OC | 1.1 | -0.8
CC(C)N(Cc1ccccc1)C(=O)CSc1nnc(-c2ccccc2Br)o1 | / | -0.4
COC(=O)c1ccc2c(c1)NC(=O)C(N(CC(C)C)CC(C)C)S2 (centres undefined) | 0.74 | -0.85
COc1cc(C2Nc3ccccc3NC3=C2C(=O)CC(c2ccccc2)C3)c(OC)cc1Br (centres undefined) | 9.5 | /
COc1cccc(N/C(SCc2ccccc2Cl)=C(/C#N)C(=O)NCc2ccccc2)c1 | -0.26 | /
CCOC(=O)c1cccc(NC(=O)Cn2nnc(-c3ccc(C)cc3)n2)c1 | 0.01 | 0.15
COC(=O)c1sccc1N(S(=O)(=O)c1ccccc1)S(=O)(=O)c1ccccc1 | / | 0.1
Clc1c(Cl)c(Cl)c(-n2cccc2)c(Cl)c1Cl | 0.11 | /
O=S(=O)(c1ccc(Br)cc1)N1CCCCCC1 | -0.095 | -0.75
CC(=O)Nc1cc([As](=O)(O)O)ccc1O | 0.44 | -0.6
Cc1nc2nc(SCC(=O)NC3CCCC(C)C3C)nn2c(C)c1Cc1ccccc1Cl (centres undefined) | -0.015 | 1.3
COc1ccc(C2/C(=C(/O)c3ccc(C)cc3)C(=O)C(=O)N2C)cc1OC (centres undefined) | -0.4 | /
Nc1cc(Cl)ccc1NCCNc1ncc(C(F)(F)F)cc1Cl | -0.5 | /
CC(C)NC(=O)/C=C/c1cn(-c2ccccc2)nc1-c1cccs1 | / | 1.2
CCC(C)C(N)C(=O)N1CCCC1C(=O)NC(C(=O)O)C(C)CC (centres undefined) | -0.35 | /
COc1ccc(Nc2c3c(nc4ccc(NC(=O)C5CC5)cc24)CCCC3)cc1OC | 18 | -0.5
C/C(=N/NC(=O)Cc1cc(=O)[nH][nH]1)c1ccc(Cl)cc1 | 0.01 | -0.9
O=C1/C(=C/c2ccc([N+](=O)[O-])cc2)C=C(c2ccccc2)N1c1ccc2ccccc2c1 | -0.21 | /
CCN(CC)C(=O)N1CCc2ccccc2C1CN1C(=O)c2ccccc2C1=O (centres undefined) | 1.6 | -0.2
CCOC(=O)C1=C(C)NC(=O)NC1c1ccccc1 (centres undefined) | 0.48 | -0.55
O=C(Nc1cccnc1)c1cc2c(=O)[nH]c3ccccc3c2s1 | 1.6 | 0.1
CC(=O)Nc1ccc(C2=N/C(=C\c3cccs3)C(=O)O2)cc1 | 0.27 | /
CC(C)(C)c1cc2cc(NS(=O)(=O)c3ccc4oc(=O)ccc4c3)ccc2[nH]1 | -0.83 | /

Complete entries, looked up by structure. Order of screens: CapD inh	AID504770
CCOC(=O)C1=C(C)NC(=O)NC1c1ccccc1 (centres undefined) is listed with 0.48	-0.55
CC(=O)Nc1cc([As](=O)(O)O)ccc1O is listed with 0.44	-0.6
O=C1/C(=C/c2ccc([N+](=O)[O-])cc2)C=C(c2ccccc2)N1c1ccc2ccccc2c1 is listed with -0.21	/

Following part:
SMILES | CapD inh | AID504770
CCC(=O)Nc1sc2c(c1C(=O)NC)CCC2 | / | 2.5
Cc1cccc(C)c1NC(=O)CC(NCc1ccco1)C(=O)O (centres undefined) | -0.04 | 0.15
O=C(CSc1nnc(-c2ccc3c(c2)OCO3)o1)NC(=O)NC1CCS(=O)(=O)C1 (centres undefined) | / | -0.2
N#Cc1cc(Br)ccc1N=C1CCCN1c1cccc(Cl)c1 | 2.2 | -0.45
CC(C)C(C)(C#N)NC(=O)CN1CCN(c2cccc(Cl)c2)CC1 (centres undefined) | / | -0.55
O=C(Nc1ccccc1)Nc1csc2ccccc12 | 0.12 | 0.75
COc1ccc(N=C/C(Br)=C/c2ccccc2)cc1OC | 98 | -0.3
Cc1ccc(-n2nc(C)c3c(C(F)(F)F)cc(-c4ccco4)nc32)cc1 | 0.44 | -0.7
FC(F)(F)c1cc(-c2ccc(Cl)cc2)nc2cc(C3CC3)nn12 | -0.17 | /
Cc1ccc(C(=O)N/C(=C/c2ccc3c(c2)OCO3)C(=O)O)cc1 | / | 0.2
CCOC(=O)CCSc1nc(C)c2ccccc2n1 | -0.15 | -0.5
O=C(O)c1cc2ccccc2oc1=O | 0.46 | -0.5
O=C(CO/N=C/c1ccco1)N1N=C2/C(=C/c3cccs3)CCCC2C1c1cccs1 (centres undefined) | / | -0.15
CCOC(=O)Cn1cnc2sc(C(=O)OCC)c(C)c2c1=O | / | -0.7
CCn1c(=O)c2cc(S(=O)(=O)NC3CCCCC3)ccc2n(CC)c1=O | 1.1 | 1.3
Cc1cc(C)n(-c2ccc(N3CCSCC3)nn2)n1 | 0.67 | 2.7
Cn1c(CC(=O)Nc2ccccc2C(F)(F)F)c(Sc2ccccc2)c2ccccc21 | -0.18 | /
COc1cc(C(=O)NN)ccc1OC(C)C | / | -0.1
CCOC(=O)/C(C#N)=C1/CCCN1 | -0.065 | -0.7
CCCN(CCC)C(=O)c1c(NC(=O)c2cccs2)sc2c1CCC(C)C2 (centres undefined) | -0.08 | 0.5
O=C(CC(NCCN1CCOCC1)C(=O)O)Nc1ccc2ccccc2c1 (centres undefined) | / | 0.85
O=C(COC(=O)CC1CCCC1)NC1CCCCCC1 | 0.085 | -0.4
Cc1cccc(Nc2nc3nonc3nc2Nc2cccc(C)c2)c1 | -1.4 | /
O=C(CNc1cccc(Cl)c1)c1ccc(Cl)cc1 | 0.08 | /
Cc1cc(C)n2nc(SC(C)C(=O)NCc3ccccc3Cl)nc2n1 (centres undefined) | 14 | -0.15
COc1ccc(Br)c(-c2nc(N)nc(NC3CC3)n2)c1 | / | 1.6
N#CC1=C(SCC(=O)Nc2ccc(Br)cc2)NC(=O)CC1c1ccccc1[N+](=O)[O-] (centres undefined) | 0.05 | /
O=C(COc1cccc(-n2cnnn2)c1)NCC1CCCCC1 | / | -0.4
CC(=O)NC(=S)Nc1ccccc1N1CCN(C(=O)c2ccccc2)CC1 | -0.16 | -0.3
CCc1ccccc1NC(=O)CCSc1nc2n[nH]c(C)c2c(=N)n1-c1cccc(Cl)c1 | -0.93 | -0.85
Cc1ccc(-n2nc(C)c(C(=O)O)n2)cc1 | 0.05 | 0.25
Cc1ccc(C2Nc3cccc4cccc(c34)N2)cc1 | 33 | /
O=C1CSC(c2cn(-c3ccccc3)nc2-c2ccccc2)N1CCO (centres undefined) | -0.83 | 0.1
O=C(c1cccc2c1NC(c1ccc(Br)cc1)C1CC=CC21)N1CCCC1 (centres undefined) | 0.045 | /
CCOC(=O)c1cc(-c2ccc(Cl)s2)nn1C(C)=O | 13 | -0.5
Cc1ccc(O)c(NC(=O)c2ccc(Br)o2)c1 | -1.8 | 2.2
O=C(NCc1ccco1)c1nc2c(nnn2Cc2cccc(Cl)c2)c(=O)[nH]1 | / | 0.45
CCOc1ccc2[nH]c(=O)c(CN(C(C)=O)C3CCCC3)cc2c1 | / | 0.1
O=C(Cc1n[nH]c(=O)c2ccccc12)NCc1ccccc1 | / | -0.25
O=c1[nH]c(N2CCCCC2)nc2ncn(Cc3ccccc3)c12 | -0.15 | -0.25
CCOC(=O)c1ccccc1C(=O)c1ccc(N(C)C)cc1 | -2.4 | -0.25
O=C(c1ccccn1)c1conc1-c1c(Cl)cccc1Cl | 0.18 | -1.2
CCC(C)c1ccc(NC(=O)C2CCCN(c3ncccn3)C2)cc1 (centres undefined) | / | -0.25
CSc1nc2ccc3nc(NC(=O)c4ccc(S(=O)(=O)N5CCCC5)cc4)sc3c2s1 | 0.025 | /
COC(=O)CN1C(=O)C2(C(C#N)=C(N)Oc3n[nH]c(-c4cc(OC)ccc4OC)c32)c2ccccc21 (centres undefined) | -0.26 | /
COc1ccc(N=c2ssc3c2-c2cc(OC)ccc2NC3(C)C)cc1 | 0.43 | /
COCCN1C(=O)c2ccccc2C(C(=O)NCCc2cccc(C)c2)C1c1c[nH]c2ccccc12 (centres undefined) | -1.6 | -0.35
COC(C(=O)Nc1ccc(Cl)cn1)c1ccccc1 (centres undefined) | 0.46 | -0.1
C=CCN(C(=O)c1cc2cc3cc(OC)ccc3nc2s1)c1ccccc1 | 0.26 | -0.05
CN(C)CCn1c(NC(=O)c2ccc(Cl)cc2)nc2ccccc21 | 8.5 | /
CCN(C#N)c1nc(N(C)C)nc(N2CCOCC2)n1 | -0.19 | 1.3
O=S(=O)(c1ccccc1Br)N1CCN(C(c2ccc(F)cc2)c2ccc(F)cc2)CC1 | 0.14 | /
CCOC(=O)C1=CN(C)C=C(C(=O)OCC)C1c1cc(Br)c(O)c(OC)c1 | -0.68 | 0.4
O=C1c2ccccc2-c2nn(C(=O)Cc3ccccc3)c3cccc1c23 | -0.35 | -0.45
Cc1nc2ncccc2cc1C(=O)O | 0.26 | /
O=C1Cc2ccccc2C(=O)N1Cc1ccco1 | 0.2 | 0.65
COC(=O)C(NC(=O)c1ccc(Cl)cc1)(Nc1sc2c(c1C#N)CCC(C(C)(C)C)C2)C(F)(F)F (centres undefined) | 0.11 | /
COc1ccc(C2=NN(CCC(=O)NCc3ccccc3)C(=O)CC2)cc1 | -0.055 | 0.35
O=CNC1CCCc2c1[nH]c1ccccc21 (centres undefined) | / | -0.3
O=CN1CCN(Cc2cccc(Cl)c2)CC1 | 0.23 | 0.4

(continued)
SMILES | CapD inh | AID504770
CCOC(=O)c1c(C)[nH]c(C(=O)OCc2nc(N)nc(Nc3ccccc3C)n2)c1C | / | -0.4
CCOC(=O)c1c(C)oc(-c2ccccc2)c1S(=O)(=O)N1CCN(c2ncc(C(F)(F)F)cc2Cl)CC1 | -0.14 | -1.1
COc1ccc(CCNC(=O)c2cc(C)on2)cc1OC | -1.2 | -0.35
Cc1cccc(CC(CC(=O)O)C(=O)N(C)C2CCN(Cc3c(Cl)cccc3Cl)C2)c1 (centres undefined) | 0.45 | /
Cc1ccc2nc(N3CCCCC3)c(/C=C3\SC(=S)N(CC4CCCO4)C3=O)c(=O)n2c1 (centres undefined) | -0.09 | /
N#CCSc1nc2c(sc3ccccc32)c(=O)n1C1CCCCC1 | 0.57 | -0.15
COc1ccc2cc(C#N)c(=O)oc2c1 | 45 | 0.75
Cc1ccc2nc(NC(=O)C(NC(=O)c3ccccc3)C(C)C)sc2c1 (centres undefined) | 0.39 | 1.9
Cc1ccc(S(=O)(=O)NCCSc2nnnn2C)cc1 | -0.03 | -0.35
COC(=O)CSC1=C(C#N)C(c2ccc3c(c2)OCO3)C2=C(CCCC2=O)N1 (centres undefined) | 0.35 | -0.3
CCCc1cc(N2CCN(C(=O)c3ccco3)CC2)n2c(nc3ccccc32)c1C#N | 1.5 | 1.4
CCN(CC)C(=O)CN(C)c1nc(-c2ccccc2)nc2ccccc12 | / | 0.15
CSc1nnc2c(n1)OC(C(=O)c1ccccc1)Nc1ccccc1-2 (centres undefined) | -0.41 | -0.25
COc1cccc(CSc2nc3nccnc3c(=O)n2CCc2ccccc2)c1 | -0.93 | 0.05
COC(=O)c1sc2ccccc2c1-n1cccc1C(=O)C(=O)NC1CC1 | -1 | /
COc1ccc(N2C(N)=C(C#N)C(c3ccc(OC)c(OC)c3)C3=C2CC(C)(C)CC3=O)cc1 (centres undefined) | -0.32 | /

An excerpt from above in order of formula weight, low to high:
SMILES | CapD inh | AID504770
COC(=O)c1sc2ccccc2c1-n1cccc1C(=O)C(=O)NC1CC1 | -1 | /
COc1cccc(CSc2nc3nccnc3c(=O)n2CCc2ccccc2)c1 | -0.93 | 0.05
COc1ccc(N2C(N)=C(C#N)C(c3ccc(OC)c(OC)c3)C3=C2CC(C)(C)CC3=O)cc1 (centres undefined) | -0.32 | /
